HNF4A DNA FP: change in binding of human HNF4 alpha to DNA; activity change, % at 10 µM; AID 1224865; 360,000 tested, 0.3% active; HNF4a-FITC DNA binding, fluorescence polarization, 1 h; P41235; in the data active means activity change above about 30%, passing the limit was not always enough;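 further: controls were the assay level and a saturating level of protein; the project sought stronger binding though the title names inhibitors; some compounds called inactive have numbers as strong as hits; positive values seem to mean higher polarization but the record does not say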
Target sequence (P41235 whole entry, looked up): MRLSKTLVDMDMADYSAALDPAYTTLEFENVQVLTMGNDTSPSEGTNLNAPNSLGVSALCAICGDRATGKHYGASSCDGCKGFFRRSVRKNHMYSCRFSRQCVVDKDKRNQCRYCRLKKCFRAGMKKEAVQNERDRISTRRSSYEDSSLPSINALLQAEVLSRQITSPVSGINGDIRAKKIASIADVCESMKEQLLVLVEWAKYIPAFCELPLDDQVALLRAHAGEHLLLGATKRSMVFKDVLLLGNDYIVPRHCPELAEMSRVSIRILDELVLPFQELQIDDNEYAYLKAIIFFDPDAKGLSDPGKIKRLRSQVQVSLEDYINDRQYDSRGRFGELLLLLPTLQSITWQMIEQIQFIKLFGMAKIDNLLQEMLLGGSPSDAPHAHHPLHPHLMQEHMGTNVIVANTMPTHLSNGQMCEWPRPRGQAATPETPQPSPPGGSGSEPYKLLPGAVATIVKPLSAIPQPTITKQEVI
rRNA inh HTS: inhibitors of bacterial rRNA selective over humanized ribosomes. AID 720706. E. coli WT GFP vs humanized-ribosome RFP mutants, fluorescence, 24 h; active compounds read low; DMSO median 0, no signal -100. GFP signal change (wild-type ribosome), % (no concentration beside the values). 350,000 tested, 1.6% active;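 active means significant combined selectivity score with lowered wild-type GFP, culture density cut under 30%, mutant RFP and density less affected; inactive means any of these conditions unmet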; further: one replicate is shown; some compounds called inactive have numbers as strong as hits
AF4-AF9 inh: blocks AF4 peptide binding to human AF9; 350,000 tested, 0.47% active; inhibition, % at 10 µM; AlphaScreen, biotin-AF4 peptide binding to FLAG-AF9; AID 651704;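 active means every replicate reaching a set inhibition limit, whatever the replicate mean, cut at about 25% in these data; inconclusive means mean inhibition reaches that limit but some replicates miss it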;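 further: 0% = plate neutral control median and 100% = total signal loss; the record names both 10 and 1 µM as test concentration; the first replicate is given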
Target sequence (P42568 whole entry, looked up): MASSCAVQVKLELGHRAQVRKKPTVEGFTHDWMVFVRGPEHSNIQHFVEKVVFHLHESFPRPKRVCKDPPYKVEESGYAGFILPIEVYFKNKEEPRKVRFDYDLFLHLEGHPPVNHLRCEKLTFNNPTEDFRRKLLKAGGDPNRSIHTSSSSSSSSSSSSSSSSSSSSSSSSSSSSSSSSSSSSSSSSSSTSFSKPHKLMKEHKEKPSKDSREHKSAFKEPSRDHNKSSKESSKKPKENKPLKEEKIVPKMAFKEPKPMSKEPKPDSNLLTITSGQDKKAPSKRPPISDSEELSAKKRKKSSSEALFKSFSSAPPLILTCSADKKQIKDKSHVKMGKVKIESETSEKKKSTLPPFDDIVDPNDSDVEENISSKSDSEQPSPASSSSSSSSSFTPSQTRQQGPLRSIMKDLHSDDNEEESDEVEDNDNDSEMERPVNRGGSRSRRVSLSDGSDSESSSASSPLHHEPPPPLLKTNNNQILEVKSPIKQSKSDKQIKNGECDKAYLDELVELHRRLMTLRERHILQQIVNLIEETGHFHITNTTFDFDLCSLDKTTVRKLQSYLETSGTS
ALR H2O2 inh: blocks human ALR sulfhydryl oxidase activity; inhibition, % (concentration not given with the values); P55789; 290,000 tested, 3.8% active; AID 485317; purified ALR, DTT oxidation, H2O2 HRP-luminol luminescence;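 active means mean and each replicate at 75% or more; inconclusive means only one of the two met; inactive means neither met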;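 further: stock transfer was 7.5 nL into about 7.5 µL; 0% = neutral wells and 100% = wells with inactivated enzyme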
Ecoli growth: E. coli growth inhibition; Escherichia coli growth, OD600, 23 h; active compounds read low; OD600 absorbance (test concentration not listed); 330,000 tested, 0.21% active; AID 1053175;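 active means OD600 absorbance below the run mean of sample wells minus 3.6 SD, in any replicate, cut at about 0.56 in these data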;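 further: stock transfer was 300 nL into about 60 µL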
Vif A3G: inhibitors of Vif binding to APOBEC3G peptide, primary screen, biochemical, TR-FRET, GST-Vif 1-94, biotin-A3G peptide, dose response retest (AID 1117319) | TR-FRET GST-Vif / biotin-A3G peptide binding; higher % means a stronger effect; test concentration not given here; strong numbers were not always called active | inhibition, %; hits with a dose series show IC50 in µM | 260,000 tested, 0.57% active;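 active means above the screen mean plus three standard deviations and confirmed in dose response; inconclusive means results disagree or hit not tested in dose response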;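 further: Vif residues 1-94 fused to GST binding biotinylated APOBEC3G peptide 110-148; 0% = full assay without inhibitor and 100% = GST in place of GST-Vif; retest series ran down from 100 µM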
FGF22 binding: FGF22 (human) thermal shift binding. Q9HCT0. calls only at 9.99 µM. recombinant FGF22 thermal shift, SYPRO orange fluorescence; percent of sucrose octasulfate shift, DMSO zero. 340,000 tested, 1.5% active;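 active means melting point raised past a set limit in the mean and every replicate; inconclusive means no clear call; three in four hits are not shown here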
rRNA inh HTS OD600: recorded beside rRNA inh HTS, whose call it bears; OD600 change, %; measured here: OD600 growth;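 optical density of the mix in the first replicate; 0 = DMSO median and -100 = no signal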
rRNA inh HTS RFP: second read-out of rRNA inh HTS, no call of its own (marks repeat the call); RFP signal change, %; measured here: RFP humanized mutant strains;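 first replicate; 0 = DMSO median and -100 = no signal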
Active calls of the source: *; i = inactive; ? = inconclusive; · = no result given; & = joins results of further samples.

SMILES | HNF4A DNA FP | rRNA inh HTS | rRNA inh HTS OD600 | rRNA inh HTS RFP | AF4-AF9 inh | ALR H2O2 inh | Ecoli growth | Vif A3G | FGF22 binding
CCN(CC)CCOC(=O)/C=C/c1ccccc1 | 1.0 | 9 | 4 | 3.4 | -2.6 | 0 | 0.62 | · | i
O=C1C2C3C=CC(C3)C2C(=O)N1c1ccc(N2CCN(c3ccccn3)CC2)c([N+](=O)[O-])c1 (centres undefined) | 0.5 | -32 | -27 | 26 | 7.4 | · | · | -6% | i
CCn1c2ccccc2c2cc(NC(=O)c3ccc(Br)o3)ccc21 | 31 | · | · | · | · | 6 | 0.71 | ? | ·
CO[C@@H]1CN(C)C(=O)c2ccc(NC(=O)c3ccccc3F)cc2OC[C@H](C)N(CC2CC2)C[C@@H]1C | · | -1 | -5 | -2.3 | 0.0 | · | · | · | i
CC1CCCN(C(=O)Cn2nnc(-c3ccc(F)cc3)n2)C1 (centres undefined) | 0.5 | 4 | 7 | 0.5 | -1.4 | -4 | 0.62 | · | i
O=C(Cn1nnc(-c2ccccc2Cl)n1)N1CCCCC1 | 0.4 | 8 | 3 | 1.0 | -2.2 | -3 | 0.69 | · | i
O=C(COC(=O)c1cc(=O)[nH]c2ccccc12)NC(=O)c1ccccc1 | 0.8 | 7 | 11 | -1.2 | -1.6 | -10 | 0.65 | 3% | i
COc1ccc(CN(CC2CCCO2)C(=O)CN2C(=O)COc3ccccc32)cc1OC (centres undefined) | 5.0 | · | · | · | · | 22 | 0.71 | -3% | ·
COCOc1cccc(CN2CCC(C)(Oc3cccc(OC)c3)C2)c1 (centres undefined) | 4.8 | 2 | 9 | 0.7 | -1.5 | · | · | · | i
CO[C@@H]1CN(C)C(=O)c2ccc(NC(=O)C3CC3)cc2OC[C@H](C)N(C(=O)C2CCCCC2)C[C@@H]1C | · | -3 | -6 | 0.7 | 0.1 | · | · | · | i
C/C=C/c1ccc([C@H]2[C@@H](CO)N3CCCCN(C(=O)Nc4ccc(F)cc4)C[C@H]23)cc1 | · | 5 | -30 | 1.8 | 4.5 | · | · | · | i
O=C(/C=C/c1cn(CC(O)CN2CCCCC2)c2ccccc12)c1cccs1 (centres undefined) | 22 | · | · | · | · | · | 0.71 | 31% | ·
COC(=O)c1sccc1NC(=S)Nc1ccccc1 | 3.7 | · | · | · | · | -1 | 0.69 | -7% | ·
O=C(COC(=O)c1ccc2ccccc2c1)Nc1ncc(C(F)(F)F)cc1Cl | 1.7 | · | · | · | · | -3 | 0.77 | -15% | ·
CSc1ccc(C2C(C#N)=C(N)Oc3c2ccc(=O)c2c(C)oc(C)c32)cc1 (centres undefined) | 31 | · | · | · | · | · | 0.74 | >53µM* | ·
O=C1CCCN1CCC1CCCCN1Cc1nc(COc2ccccc2)no1 (centres undefined) | 2.5 | 11 | 10 | 2.0 | 1.8 | -3 | 0.66 | ? | i
COc1ccc(NC(=O)N(C)C[C@@H]2Oc3ccc(NC(=O)C4CC4)cc3CC(=O)N([C@H](C)CO)C[C@@H]2C)cc1 | · | 1 | 0 | -2.8 | -5.6 | · | · | · | i
Cc1ccc(C(=O)Nc2ccc(CN3CCS(=O)(=O)CC3)cc2)cc1C | -1.9 | 16 | 7 | 0.3 | 0.4 | 0 | 0.64 | · | i
CC(C)C#Cc1ccc2c(c1)O[C@H](CN(C)C(=O)NC(C)C)[C@@H](C)CN([C@H](C)CO)S2(=O)=O | · | -6 | -5 | -2.5 | 1.1 | · | · | · | i
O=c1cc(-c2ccccc2)nc2c(-c3ccccc3)c(C(F)(F)F)[nH]n12 | -1.0 | -2 | 3 | 0.8 | -6.6 | · | 0.64 | 18% | ·

Next part, overlapping the part above by 4 compounds.
SMILES | HNF4A DNA FP | rRNA inh HTS | rRNA inh HTS OD600 | rRNA inh HTS RFP | AF4-AF9 inh | ALR H2O2 inh | Ecoli growth | Vif A3G | FGF22 binding
COc1ccc(NC(=O)N(C)C[C@@H]2Oc3ccc(NC(=O)C4CC4)cc3CC(=O)N([C@H](C)CO)C[C@@H]2C)cc1 | · | 1 | 0 | -2.8 | -5.6 | · | · | · | i
Cc1ccc(C(=O)Nc2ccc(CN3CCS(=O)(=O)CC3)cc2)cc1C | -1.9 | 16 | 7 | 0.3 | 0.4 | 0 | 0.64 | · | i
CC(C)C#Cc1ccc2c(c1)O[C@H](CN(C)C(=O)NC(C)C)[C@@H](C)CN([C@H](C)CO)S2(=O)=O | · | -6 | -5 | -2.5 | 1.1 | · | · | · | i
O=c1cc(-c2ccccc2)nc2c(-c3ccccc3)c(C(F)(F)F)[nH]n12 | -1.0 | -2 | 3 | 0.8 | -6.6 | · | 0.64 | 18% | ·
O=C(Nc1nnc(CCc2ccccc2)s1)c1ccco1 | 1.8 | · | · | · | · | -2 | 0.69 | -2% | ·
COc1ccc(CSC2=C(C#N)C(=O)NC3(CCCCC3)S2)cc1 | 6.3 | -28* | -24* | -1.9* | 2.6 | · | · | -3% | ·
Cc1ccsc1/C=N/NC(=O)CO | -1.4 | · | · | · | · | -7 | · | 15% | ·
COC(=O)CCC(NC(=O)c1cc(-c2ccc3c(c2)OCCO3)oc1C)C(=O)OC (centres undefined) | 1.7 | · | · | · | · | 9 | 0.71 | 11% | ·
C[C@@H]1CCCCO[C@H](CN(C)C(=O)Cc2ccccc2)[C@@H](C)CN([C@H](C)CO)C(=O)c2cc(N(C)C)ccc2O1 | -3.1 | 8&1 | 12&3 | 0.3&0.9 | -0.5&7.7 | · | · | 2% | i
O=C(CSc1ccccc1C(=O)O)c1ccc([N+](=O)[O-])cc1 | -3.2 | 8 | 8 | 2.1 | 0.3 | 71 | 0.67 | -3% | i
CC1=NC2=CC=CC3=NC(C(Cl)(Cl)Cl)=NC(=N1)N23 | · | 4 | 5 | 2.3 | 14 | · | · | · | i
CCCNC(=O)c1ccc(N(Cc2ccccc2)S(C)(=O)=O)cc1 | -5.7 | 9 | -1 | -5.9 | 2.5 | -2 | 0.67 | 5% | i
CC(C)c1ccc2oc(=O)cc(CN3CCN(c4ccc(F)cc4)CC3)c2c1 | 4.1 | · | · | · | · | -8 | 0.77 | 22% | ·
Cn1cc(SCC(=O)N2CCN(c3ccccc3)CC2)c2ccccc21 | 2.5 | -3 | -30 | -6.9 | 4.5 | 98* | 0.67 | -3% | i
O=C(CNC(=O)c1ccc(F)cc1)N/N=C/c1cn[nH]c1-c1ccccc1 | -5.0 | 0 | 12 | -0.6 | -2.7 | -17 | · | -5% | i
COc1ccc(CCN2C(=O)CC(N3CCN(C/C=C/c4ccccc4)CC3)C2=O)cc1OC (centres undefined) | -1.8 | -3 | -7 | 0.9 | 0.0 | 1 | 0.68 | -5% | i
CCNC(=O)C[C@H]1CC[C@H]2[C@H](COc3ccc(NC(=O)c4ccc(F)c(F)c4)cc3C(=O)N2C)O1 | · | 2 | 4 | -1.8 | 0.6 | · | · | · | i
C[C@@H]1CN([C@H](C)CO)C(=O)c2ccccc2-c2ccccc2CO[C@@H]1CN(C)Cc1cccc(F)c1 | · | -6 | -43 | 20 | -9.6 | · | · | · | i
O=C(C[C@@H]1C[C@@H]2c3cc(NC(=O)CC4CC4)ccc3O[C@@H]2[C@H](CO)O1)NCc1ccc2c(c1)OCO2 | · | 0 | 0 | -0.3 | -2.6 | · | · | · | i
COc1ccc(C(=O)Nc2nnc(SCC(=O)NCc3ccco3)s2)cc1OC | -2.2 | 16 | 12 | 1.7 | -3.1 | -26 | 0.68 | · | i
C[C@@H]1CCCCO[C@H](CN(C)Cc2ccc(C(=O)O)cc2)[C@@H](C)CN([C@H](C)CO)C(=O)c2cc(NC(=O)NC3CCCCC3)ccc2O1 | · | 0 | 4 | -1.1 | -5.3 | · | · | · | i
CCOc1ccc(C(=O)NC2CC3CCCC(C2)N3CC(C)C)cc1 (centres undefined) | -7.7 | 11 | 11 | -0.2 | -7.3 | -5 | · | · | i
COc1cc(NC(=O)Cc2ccc(Cl)cc2)ccc1NC(=O)c1ccco1 | -4.1 | · | · | · | · | -1 | 0.68 | -1% | ·
O=C1c2ccccc2C(Nc2ccc(F)cc2F)N1CCN1CCOCC1 (centres undefined) | -0.2 | -1 | -4 | 0.0 | -5.5 | 0 | 0.72 | ? | i
CCCOc1ccc(S(=O)(=O)NCCCN2CCOCC2)c2ccccc12 | 0.4 | · | · | · | · | -16 | 0.76 | 0% | ·
COc1ccc(NC(=O)N(C)C[C@H]2Oc3cc(C#CCN(C)C)ccc3S(=O)(=O)N([C@@H](C)CO)C[C@H]2C)cc1 | · | 5 | 4 | -0.3 | 4.8 | · | · | · | i
C[C@H](CO)N1C[C@H](C)[C@@H](CN(C)Cc2ccc(-c3ccccc3)cc2)Oc2c(NC(=O)CCCCCC(=O)Nc3ccccc3N)cccc2C1=O | · | 0 | 6 | -1.2 | 2.0 | · | · | · | i
C/C(CCC1CC(C)OC1=O)=N/Nc1nc(-c2ccccc2)cs1 (centres undefined) | -1.7 | · | · | · | · | 98* | · | 3% | ·
O=S(=O)(NCC1CCCO1)c1ccc(S(=O)(=O)N2CCc3ccccc3C2)cc1 (centres undefined) | -2.5 | · | · | · | · | -5 | 0.68 | 7% | ·
O=C(NC(NNc1ccc([N+](=O)[O-])cc1)(C(F)(F)F)C(F)(F)F)c1ccc(Cl)cc1 | -1.6 | · | · | · | · | · | 0.71 | 8% | ·
O=C(Nc1ccc2c(c1)OCO2)c1cc(C2CC2)on1 | -4.7 | 4 | -18 | -7.4 | -3.6 | -5 | 0.73 | 10% | i
CCc1ccc(NC(=O)CSc2nnc(-c3cnccn3)n2Cc2ccco2)cc1 | -3.3 | -6 | -2 | 6.4 | · | 29 | 0.74 | 3% | ·
O=C(CCc1ccc(S(=O)(=O)NC2CCCCC2)cc1)NCc1cccnc1 | -1.9 | 17 | 12 | -1.2 | -2.7 | -3 | 0.72 | · | ·
c1ccc(COc2ccc(OCCCCN3CCCC3)cc2)cc1 | -2.2 | · | · | · | · | 2 | · | 11% | ·
O=C(Nc1ccc2ccccc2c1)c1ccccc1[N+](=O)[O-] | -0.8 | -17 | -14 | -1.2 | 2.3 | · | 0.69 | 1% | i
CCCNC(=O)N1[C@H](CO)[C@@H](c2ccccc2-c2ccc(OC)cc2)[C@@H]1C#N | · | 3 | 8 | 2.2 | 1.4 | · | · | · | i
O=C(c1ccoc1)N1CCN(c2cc(-c3ccncc3)nc3cc(-c4cccc(Cl)c4)nn23)CC1 | 3.2 | -12 | 36 | 4.9 | -7.5 | · | · | -10% | i
CCCN1CCC(NC(=S)Nc2cccc(Cl)c2Cl)CC1 | 0.1 | 8 | 9 | 0.9 | 1.9 | -11 | 0.62 | 30% | i
COc1ccccc1CNC(=O)C[C@@H]1CC[C@H](NC(=O)CN(C)C)[C@@H](CO)O1 | · | -1 | -6 | -0.4 | -0.9 | · | · | · | i
CCCc1cc(=O)[nH]c(SCc2cc(=O)oc3c(C)c(C)ccc23)n1 | -1.8 | 2 | 11 | -7.2 | -2.4 | -3 | 0.71 | -8% | i
O=C(COC(=O)c1ccco1)NC1CCCCC1 | 0.8 | · | · | · | · | -2 | 0.69 | 4% | ·
CC(C)(C)c1cc(C(=O)Nc2ccccc2)ccn1 | -1.6 | · | · | · | · | -18 | 0.66 | 11% | ·
COc1ccc(NC(=O)C2(C)Cc3c(-c4cccc(C(N)=O)c4)ccnc3O2)cc1 (centres undefined) | -5.1 | 0 | -8 | -0.5 | -2.0 | · | · | · | i

From PubChem

Only part of the results is shown, so the mix of outcomes need not match the whole.
